Sa helicase inh: inhibitors of S. aureus replicative helicase, primary screen, biochemical, fluorescence unwinding readout; replicative DNA helicase (DnaC/DnaB), Staphylococcus aureus; purified S. aureus helicase, fluorescence unwinding assay; about half of the hits fall short of the stated cut; inhibition, %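 (tested at about 80 µM)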; 0.05% of 120,000 active;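 active means both duplicates at 50% or more, or one of them with a favoured structure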;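 further: 0% = mean of negative control wells and 100% = mean of positive control wells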
MgrA DNA FP: S. aureus MgrA activity modulators, primary screen, biochemical, S. aureus Newman, fluorescence polarization; MgrA-DNA binding; inhibition, %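 (about 10 µg/mL by stock and volumes)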; 0.13% of 84,000 active;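 active means above 50% in either of two replicates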;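 further: 0% = protein plus DNA without compound and 100% = DNA alone without protein; higher means less MgrA bound to DNA so lower polarization; one replicate is shown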
Numbers without * were called inactive; . = not tested or not shown. Some of the compounds tested. The share of hits here may be higher or lower than overall.

SMILES	Sa helicase inh	MgrA DNA FP
O=C(c1cnn2c(C(F)(F)F)cc(-c3ccc4c(c3)OCO4)nc12)N1CCN(Cc2ccccc2)CC1	.	-2.2
CCCc1cc(=O)[nH]c(SCC(=O)c2ccc3c(c2)CCN3S(=O)(=O)CC)n1	-13	.
O=c1c(-c2ccccc2)nnc2c3ccccc3ncn12	13	.
O=C(CCc1c[nH]c2ccccc12)OCC(=O)N1CCc2ccccc21	-7	.
CC(C)Cc1ccc(C(C)C(=O)NC(C)C)cc1 (stereo unspecified)	-5	4.2
CC(C(=O)c1ccccc1)[n+]1ccc2ccccc2c1 (stereo unspecified)	-12	0.9
Oc1ccc(Cl)cc1-c1cc(-c2ccco2)[nH]n1	-32	16
O=C(CSc1nc2ccccc2nc1N1CCCC1)Nc1ccccc1	2	-2.4
Cc1cc(=O)[nH]c2n[nH]c(-c3ccccc3)c12	-1	.
Cc1cc(OCC(=O)O)c2ccccc2n1	-2	-7.8

Four entries from above in a different format.
CC(C)Cc1ccc(C(C)C(=O)NC(C)C)cc1 (stereo unspecified)
  Sa helicase inh: -5 | MgrA DNA FP: 4.2
CC(C(=O)c1ccccc1)[n+]1ccc2ccccc2c1 (stereo unspecified)
  Sa helicase inh: -12 | MgrA DNA FP: 0.9
Oc1ccc(Cl)cc1-c1cc(-c2ccco2)[nH]n1
  Sa helicase inh: -32 | MgrA DNA FP: 16
O=C(CSc1nc2ccccc2nc1N1CCCC1)Nc1ccccc1
  Sa helicase inh: 2 | MgrA DNA FP: -2.4

Additional records.
SMILES	Sa helicase inh	MgrA DNA FP
COc1cccc(C(=O)NN)c1	.	-0.7
Cc1cc(-n2c(C)cc(CNC3CCN(Cc4ccccc4)C3)c2C)no1 (stereo unspecified)	5	.
O=C(NCc1cccs1)c1cc(=O)[nH]c2ccc(S(=O)(=O)N3CCCC3)cc12	12	.
C=CCc1ccccc1OCC(O)CN1CCN(C(=O)OCC)CC1 (stereo unspecified)	2	.
O=C(NCCC(=O)N1CCN(C/C=C/c2ccccc2)CC1)c1ccc(Cl)cc1	-3	.
COc1cccc(NC(=O)CSc2ccccc2)c1	9	-1.1
Cc1ccc2c(c1)CCCN2C(=O)CC(=O)N1CCCc2cc(C)ccc21	.	-0.7
O=C(Nc1cccnc1Cl)c1nn2c(C(F)(F)F)cc(-c3ccco3)nc2c1Cl	.	-3.0
Cc1ccc(Br)cc1S(N)(=O)=O	24	.
CCOC(=O)C1CCN(c2ccc(C(C)=O)cc2[N+](=O)[O-])CC1	.	-0.4
CCOc1ccccc1NC(=O)c1ccccc1O	15	-1.3
C/C=C/C1(/[N+]([O-])=C/c2ccccc2)CCCCC1	.	-1.1
COc1ccc(/C(O)=C2\C(=O)C(=O)OC23C(=O)c2ccccc2C3=O)cc1	1	.
CCCCCCCCCCCCC/C=C/[C@@H](O)[C@H](CO)NC(C)=O	.	0.6
O=C(Cn1nnc(-c2cc(Cl)cc(Cl)c2)n1)c1ccc2ccccc2c1	.	-0.2
Cc1ccc(CNC(=O)NCCN2CCN(c3ccccc3)CC2)cc1	10	0.2
C1=CC2C=CC1c1ccccc12	-2	.
Cc1nc2ccc(NS(=O)(=O)c3ccccc3C(F)(F)F)cc2s1	-13	.
CCOC(=O)Cn1c(=O)n(CCc2ccc(OC)c(OC)c2)c(=O)c2cccnc21	-14	.
O=C(Nc1cccnc1)c1cc2c(s1)-c1ccccc1CC2	.	0.8

Continued (5 carried over from the part before).
SMILES	Sa helicase inh	MgrA DNA FP
Cc1ccc(CNC(=O)NCCN2CCN(c3ccccc3)CC2)cc1	10	0.2
C1=CC2C=CC1c1ccccc12	-2	.
Cc1nc2ccc(NS(=O)(=O)c3ccccc3C(F)(F)F)cc2s1	-13	.
CCOC(=O)Cn1c(=O)n(CCc2ccc(OC)c(OC)c2)c(=O)c2cccnc21	-14	.
O=C(Nc1cccnc1)c1cc2c(s1)-c1ccccc1CC2	.	0.8
Cc1cc(C(=O)O)c(C)n1-c1ccc(Cl)cc1	.	-2.3
CS(=O)(=O)c1ccc(CC(=O)O)cc1	-10	.
CC(C)(C)c1cc(N)c(C(N)=O)s1	.	-0.7
Cc1cc2c(cc(C(=O)NCc3ccc(Cl)cc3)n2Cc2ccc(Cl)cc2)o1	-6	1.9
OCCN1CCN(C(c2ccccc2)c2ccc3cccnc3c2O)CC1 (stereo unspecified)	11	.
Cc1cc(NC(=O)C2CC2)nc2c1c(=O)oc1ccccc12	-21	.
CN(Cc1ccccc1)c1nc2c(c(=O)[nH]c(=O)n2C)n1CCCOc1ccccc1	2	.
Cc1cc(C)c(S(=O)(=O)N2CCc3ccccc32)c(C)c1	-5	1.9
O=C(NCC1COc2ccccc2O1)c1cc(-c2ccco2)nc2ccccc12 (stereo unspecified)	15	.
Cc1nc2cc(C(=O)O)ccc2n1-c1ccc(Br)cc1	11	6.0
CCc1ccc(N2C(=O)c3ccccc3NC2(C)C)cc1	8	1.9
CC(=N\N1CCOCC1)/C(C)=N/N1CCOCC1	6	.
CC(=O)Nc1cc2c(cc1C(=O)C(C)C)OCCO2	7	-2.4
O=C(Nc1ccccc1O)c1csc2c1CCCC2	-1	0.4
O=C(O)C(O)c1cccc(Cl)c1 (stereo unspecified)	.	-2.1
CN(C)c1oc(-c2ccc(Cl)cc2)nc1C#N	11	2.1
CC1=NN(C)C(=O)/C1=C/N(C)C	.	0.7
O=[N+]([O-])c1ccc(SC2=NCCN2)c(Cl)c1	.	1.0
CCSc1nnc2c(n1)OC(c1cccc(OC)c1)Nc1ccccc1-2 (stereo unspecified)	.	-1.3
Nc1ccc2nc(-c3ccccc3)oc2c1	23	.
Cc1ccc(S(=O)(=O)NCCCn2ccnc2)cc1	3	.
O=C(Nc1nc(-c2cccs2)cs1)c1ccc(Cl)cc1	-3	0.2
CC1=C(C(=O)OCC2CCCO2)C(c2ccc(OCc3ccccc3)cc2)NC(=O)N1 (stereo unspecified)	.	-1.0
CCc1cc2c(=O)n(CC)c(SCC3CCCCO3)nc2s1 (stereo unspecified)	-4	.
CC(=O)N1N=C(c2ccc(C(C)(C)C)cc2)OC1(C)C	4	0.5
CN(C)c1nc(NCCNS(=O)(=O)c2ccc(Cl)cc2)nc(N(C)C)n1	5	-1.0
Fc1ccc(C(c2nnnn2Cc2ccccc2)N2CCSCC2)cc1 (stereo unspecified)	17	-30
Cn1c(CNc2ccc(C(=O)O)cc2)nc2ccccc21	3	.
N#Cc1ccc(COc2ncnc3ccccc23)cc1	37	.
O=C(CSc1ncnc2c1nnn2Cc1ccc(F)cc1)c1ccccc1	-2	-2.7
Cc1ccc(CNC(=O)c2cccnc2Sc2cccc(C(F)(F)F)c2)cc1	.	3.2
COc1ccc(C=NCCc2cccs2)c(O)c1	.	0.8
S=c1nn[nH]n1CCc1ccc(Cl)cc1	.	0.2
CC(C1CC1)N(CC(F)(F)F)C(=O)CSc1nnc(-c2ccccc2Cl)o1 (stereo unspecified)	-16	.
O=c1c(Br)c(NCCCO)cnn1-c1ccccc1	25	1.7
CCNc1nc2[nH]c(=O)cc(O)c2s1	-30	.
CC(=O)Oc1ccc(C2NC(C(=O)O)CS2)cc1 (stereo unspecified)	.	-3.3
O=c1oc2ccccc2cc1-c1ccc2c(c1)OCO2	2	-1.6
Cc1cc(C(=O)NC2Cc3ccccc3C2)c(C)o1	.	-0.5
Cn1cc(C(=O)c2cc(F)ccc2O)cc(C#N)c1=O	-33	.
CN(C)C(=O)n1nnc2ccccc21	3	.
O=C(Cn1nnc(-c2cccc(Cl)c2)n1)NCC(=O)Nc1ccc(F)cc1	12	.
CCN1CCCC1CNC(=O)c1csc2c1CCCCC2 (stereo unspecified)	9	5.7
O=C1CCc2cc(S(=O)(=O)NC(Cc3ccccc3)C(=O)N3CCN(c4ccccc4)CC3)ccc2N1 (stereo unspecified)	-7	.
CN(Cc1ccc(-c2ccc(Br)cc2)o1)C(=O)Cc1ccsc1	7	.
NC(=O)N1CC(O)CC1C(=O)Nc1ccc(Cl)c(Cl)c1 (stereo unspecified)	-13	.
COc1ccc(NC(=O)COc2ccccc2Cl)cc1NC(=O)c1ccco1	24	3.2
Nc1ncnc2nc(SCc3ccc4nsnc4c3)[nH]c12	.	0.0
c1ccc(CCc2nc(-c3ccccc3)no2)cc1	10	-0.3
CCc1ccc2nc(N(CCN(C)C)C(=O)c3ccc(N(C)C)cc3)sc2c1	4	-0.8

Next section
SMILES	Sa helicase inh	MgrA DNA FP
O=C(CCC(=O)N1CCc2ccccc2C1)N1CC=C(c2c[nH]c3ccccc23)CC1	-11	7.5
Cc1ccc(/C=C/C(=O)Cc2ccccc2)cc1	.	-1.4
COc1cc(NC(=O)c2nn3c(C(F)(F)F)cc(-c4ccco4)nc3c2Cl)cc([N+](=O)[O-])c1	.	-1.1
CCOc1ccc2oc(=O)cc(CN(Cc3ccco3)C3CCCC3)c2c1	4	1.4
COc1cnn(C(C)(C)C)c(=O)c1Cl	.	0.4
O=C(Nc1ncc(Cc2ccccc2Cl)s1)c1ccco1	-8	.
CCN(CC)S(=O)(=O)c1ccc(/C=C/C(=O)OCC(=O)N2CCCCC2)cc1	-3	.
Cc1ccnc(SCn2c(=S)sc3ccccc32)n1	.	4.6
CC(C)Cc1nc2ccccc2n1CC(=O)N(c1ccccc1)C(C)C	5	-0.5
N#Cc1ccc(/C=C/c2ccc(C#N)cc2)cc1	2	.
CCOC(=O)CSc1nnc(-c2cccc(S(=O)(=O)N3CCCCC3)c2)n1-c1ccccc1	-3	.
COC(=O)c1c(NC(=O)CSc2nnnn2-c2ccccc2)sc2c1CCC2	1	.
CC(C)OC(=O)CC1C(=O)NCCN1C(=S)NC(=O)C1CCCCC1 (stereo unspecified)	22	11
S=c1[nH]c(=S)c2ccccc2[nH]1	-2	.
Cc1cc(C)n(C(=O)C2CC(=O)N(c3ccccc3)C2)n1 (stereo unspecified)	8	2.5
Cn1c(=O)c2c(nc(NCCc3ccccc3)n2C)n(C)c1=O	13	.
Cc1[nH]c(SCC(=O)N2CCN(CC3CCCO3)CC2)nc1Cc1ccccc1 (stereo unspecified)	-8	.
CN(C)c1ccc(P(C)(C)=O)cc1	5	.
COc1ccc(Cn2c(=O)c3[nH]cnc3n(-c3cc(S(C)=O)ccc3C)c2=O)cc1 (stereo unspecified)	.	2.1
COc1cc(C2Nc3ccc4ncccc4c3C3=C2C(=O)CCC3)cc(OC)c1O (stereo unspecified)	1	.
CC1CC(C)CN(S(=O)(=O)c2ccc3c(c2)oc(=O)n3CC(=O)NCCc2ccccc2)C1 (stereo unspecified)	9	.
CCOC(=O)c1cnc(SCC(=O)N2CCCCC2)nc1N	-13	.
O=C1c2ccccc2C(=O)N1/N=C/c1ccc(-c2ccccc2Br)o1	-2	.
CCOC(=O)c1cc(-c2ccccc2)nn1-c1ccccc1	14	1.6
O=C(CCn1c(=O)oc2ccccc21)N1CCCCC1	-3	.
CCN(CC)c1ccc(/C=C2\C(=O)NC(=S)N(c3ccc(F)cc3)C2=O)c(OC)c1	.	-1.5
Cc1ccc(C)c(Cn2cnc3c(cnn3CCO)c2=O)c1	4	.
COc1ccc(C(=O)n2cnc3ccccc32)cc1Br	9	.
CC(C)(C)NCc1nc(-c2ccccc2)no1	1	-1.0
COC(=O)c1c(-c2ccccc2)csc1NC(=O)CS(=O)(=O)c1ccccc1	-8	.
O=C1Nc2ccccc2S/C1=C\C(=O)N1CCc2ccccc2C1	3	.
O=c1[nH]cnc2nc(-c3ccccc3)c(-c3ccccc3)nc12	6	0.1
CC(=O)OC(OC(C)=O)c1ccc(S(C)(=O)=O)cc1	.	-1.6
COCCOC(=O)C1=C(N)OC2=C(C(=O)CCC2)C1c1ccc(Cl)cc1 (stereo unspecified)	.	-2.0
COC(=O)c1ccc(Cn2cnc3c(cnn3C)c2=O)cc1	9	.
CC1CCCN(CCCNC(=O)c2nc(-c3cccnc3)no2)C1 (stereo unspecified)	6	0.2
CSCCC(=O)Nc1nc2ccccc2[nH]1	9	.
COc1ccc2cccc3c2c1C=CC3=O	.	9.4
FC(F)(F)c1ccccc1-n1ccnc1	.	3.3
CC1C/C(=N\NC(=S)NC(C)C)CC(C)(C)C1 (stereo unspecified)	-5	.

Three entries out of the list, arranged by molecular weight, ascending.
SMILES	Sa helicase inh	MgrA DNA FP
O=c1[nH]cnc2nc(-c3ccccc3)c(-c3ccccc3)nc12	6	0.1
CC1CCCN(CCCNC(=O)c2nc(-c3cccnc3)no2)C1 (stereo unspecified)	6	0.2
COCCOC(=O)C1=C(N)OC2=C(C(=O)CCC2)C1c1ccc(Cl)cc1 (stereo unspecified)	.	-2.0

(next part)
SMILES	Sa helicase inh	MgrA DNA FP
COCCn1c2c(c(=O)[nH]c1=O)C(c1ccccc1)C1=C(N2)c2ccccc2C1=O (stereo unspecified)	15	.
COc1ccc(C2CC(=O)c3cnc(NC(=O)c4ccccc4)nc3C2)cc1 (stereo unspecified)	5	5.3
O=C(CSc1ncccn1)NCc1ccc(Cl)cc1	-4	0.3
CCc1cccc(CC)c1Nc1ncnc(N)n1	.	1.2
COc1c(C)cc(Br)cc1C(=O)NC(=S)Nc1cccc(-c2nc3ncccc3o2)c1C	11	1.6
CCSC1=C(C#N)C(=O)NC(C(C)C)S1 (stereo unspecified)	14	-1.5
O=C1CCCc2cc(S(=O)(=O)NCCCN3CCN(c4ccccc4)CC3)ccc2N1	22	.
Cc1nc(C)n(C)c(=O)c1-c1ccccc1	-13	.
CC(C)Cn1c(SCC(=O)Nc2sccc2C#N)nnc1-c1ccco1	5	.
CCOC(=O)C(=NC1CCS(=O)(=O)C1)NNc1cc(C(F)(F)F)ccc1Cl (stereo unspecified)	-16	.
O=[N+]([O-])c1cc(Cl)ccc1Sc1ccccc1	.	3.6
COc1ccc(-c2noc(N(C)CC(=O)Nc3cccc(C)n3)n2)cc1	3	.
CNC(=O)C12CC3CCC(CC(C3)C1)C2	19	.

Bioassay records: PubChem, ICCB-Longwood Screening Facility, Harvard Medical School
